AmpC inh no det: Promiscuous and Specific Inhibitors of AmpC Beta-Lactamase (assay without detergent) | AID 585, 2007 | Potency, µM (titrated, usually from 28.7 µM), inactives show at the top dose activity change, negative = inhibition | AmpC nitrocefin hydrolysis, absorbance 480 nm, no detergent; potencies from a single point are estimates | 1.8% of 71,000 active; active = falling curve, for most hits resting on a single point; inconclusive = weak or doubtful change; inactive = flat or rising curve; note: % of control where 0% means no effect; about half of the hits show no inhibition at the top dose; a quarter of the inactives give rising signals
Target sequence (P00811 whole entry, looked up): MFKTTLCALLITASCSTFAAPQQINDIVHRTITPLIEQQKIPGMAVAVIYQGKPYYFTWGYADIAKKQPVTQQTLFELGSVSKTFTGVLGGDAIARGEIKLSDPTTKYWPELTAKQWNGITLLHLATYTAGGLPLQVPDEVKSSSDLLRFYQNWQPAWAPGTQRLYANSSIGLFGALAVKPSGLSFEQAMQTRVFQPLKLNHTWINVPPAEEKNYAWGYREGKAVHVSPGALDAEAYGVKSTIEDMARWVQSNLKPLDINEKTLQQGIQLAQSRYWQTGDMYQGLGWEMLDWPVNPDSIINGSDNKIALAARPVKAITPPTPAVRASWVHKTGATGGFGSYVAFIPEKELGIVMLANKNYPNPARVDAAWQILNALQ
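AmpC, 20 mM phosphate pH 7.0; 15 min cpd preinc, RT; start with nitrocefin (800 uM stock); A480 kinetic read, 20 s intervals, 4 min. No-enzyme wells = negative control.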
An asterisk follows results filed as active; ? = inconclusive; [ ] = remark or other dose. Potency is the fitted concentration of half-maximal effect. An excerpt; the hit share may differ from the screen's.

Compound	AmpC inh no det
O=C(Nc1ccc(C(=O)N2CCOCC2)cc1)Nc1cccc(Cl)c1	-10%
CCCCOC(=O)Nc1cc(OC)c(Cl)cc1OC	18%
CCN(CC)CCCN1C(=O)C(=O)/C(=C(/O)c2ccc3c(c2)OCO3)C1c1ccccn1 (stereo unspecified)	-14%
O=C(CC(=O)NCc1cccnc1)NCc1cccnc1	-10%
COc1ccc(CNC(=O)c2ccc3c(c2)N(C)C(=O)CS3=O)cc1 (stereo unspecified)	1%
CC(C)C[C@H](NC(=O)OC(C)(C)C)C(=O)N1CCC(C(=O)N[C@@H](Cc2ccccc2)C(=O)O)CC1	16%
CSC1=C(C#N)C2(CCCCC2)C(C(=O)Nc2ccccc2)=C(C)N1	10%
Cc1ccc(S(=O)(=O)Nc2ccc3nc(N)sc3c2)cc1	10µM*
O=C(N[C@@]1(C(=O)O)C[C@@H]1c1ccccc1)c1ccccc1	1%[5.75 µM]
Cc1ccc(/C=N/c2sc3c(c2C#N)CCC3)s1	-17%
Cc1nc2cccc(C(=O)NC3CCCCC3)c2o1	-4%
CN(C)c1cc(-c2cccc(NS(C)(=O)=O)c2)ncn1	5%
C=CCCl	-5%
COc1cc(-c2nn3c(-c4cccc(C)c4)nnc3s2)cc(OC)c1OC	39%
CCn1cc(C(=O)NCc2cccs2)c(=O)c2ccc(C)nc21	10%
COc1ccc(-c2cn3cccnc3n2)cc1NC(=O)CC(C)C	10%
COc1ccc(C2=Nn3c(nnc3-c3ccccc3OC)SC2)cc1OC	32%
Cc1ccc(C)c(Cn2nnc3c(=O)[nH]c(C(=O)NCc4ccco4)nc32)c1	0%
N#CCCn1c(-c2nonc2NC(=O)c2ccccc2Cl)nc2ccccc21	0%
Cc1cc(C)nc(NS(=O)(=O)c2ccc(N)cc2)n1	-6%
CN1C(=O)c2oc3ccc(Br)cc3c(=O)c2C1c1ccncc1 (stereo unspecified)	4%
COc1cc2c(cc1OC)C(COc1ccc3c(C)cc(=O)oc3c1)N(C(=O)c1ccco1)CC2 (stereo unspecified)	122%
CS(=O)(=O)Nc1ccc2c(c1)C(=O)OC2	-6%
COc1cccc(-c2noc(-c3cccs3)n2)c1	-3%
O=C1c2oc3ccccc3c(=O)c2C(c2cccc(O)c2)N1c1ccccn1 (stereo unspecified)	-6%

Pulled by structure from the entries so far (4):
Compound	AmpC inh no det
CCCCOC(=O)Nc1cc(OC)c(Cl)cc1OC	18%
COc1ccc(CNC(=O)c2ccc3c(c2)N(C)C(=O)CS3=O)cc1 (stereo unspecified)	1%
N#CCCn1c(-c2nonc2NC(=O)c2ccccc2Cl)nc2ccccc21	0%
COc1ccc(C2=Nn3c(nnc3-c3ccccc3OC)SC2)cc1OC	32%

Remaining list, next part.
Compound	AmpC inh no det
COCCCn1c(SCC(N)=O)nnc1-c1ccccc1	2%
CCOC(=O)N1CCN(C(=O)Nc2ccc(Cl)cc2)CC1	-2%
CCOc1ncccc1C(=O)OCc1cn2cc(Cl)ccc2n1	40%
Cc1cccc2cc(CN(Cc3ccccc3)C(=O)N(C)C)c(=O)[nH]c12	64%
O=C(Oc1ccccc1)c1cccc(COC(=O)c2cnccn2)c1	-13%
CCOc1cc(-c2c(C#N)c(N)nc3c2CCCC3C)ccc1O (stereo unspecified)	-4%
CC(C)Sc1nc(NCc2ccco2)c2c3c(sc2n1)COC(C)(C)C3	2%
O=C(CSc1nc2ccccc2s1)N1CCOCC1	-3%
CC(=O)NCCNc1ncncc1-c1ccccc1C	14%
COCCNC(=O)c1c[nH]c2ccc(S(=O)(=O)N3CCC4(CC3)OCCO4)cc2c1=O	13%
CCOc1ccc(-n2c(C)nc3c(cnn3-c3ccc(Cl)cc3)c2=O)cc1	29%
CCOC(=O)c1nc(N)c(=O)n(-c2ccccc2)n1	-1%
Cc1ccc(S(=O)(=O)N(C)CCCC(=O)N2CCN(c3ccccn3)CC2)cc1	112%
O=S(O)O.O=S(O)O.[Co].[NH2-].[NH2-].[NH2-].[NH2-]	14%[5.75 µM]
O=C(NC1CCCC1)C(c1ccco1)N(Cc1ccccc1)C(=O)c1csnn1 (stereo unspecified)	18%
CS(=O)(=O)N1CCCC(C(=O)NCCCN2CCC(Cc3ccccc3)CC2)C1 (stereo unspecified)	-15%
Oc1ccc(CN2CCCc3ccccc32)c2cccnc12	?
CCOc1ccc(Nc2c3c(nc4ncnn24)CC(C)CC3)cc1 (stereo unspecified)	60%
Cc1cnc(CNc2nc(-c3cccc(NS(C)(=O)=O)c3)nc3ccccc23)cn1	40%
COC(=O)N1CCC2(CC1)CN(C(=O)Nc1ccccc1)C2	-2%
O=S1(=O)NC(=NC2CCCCCC2)c2ccccc21	-8%
CCCCn1c(=O)c(C(=O)Nc2cnccn2)c(O)c2ccccc21	2%
CN(C)CCN(Cc1ccccc1)c1ccnc(N(C)C)c1C#N	11%
COc1cc(NC(=O)CSc2nnc3n2C(C)(C)Cc2ccccc2-3)cc(OC)c1	14%
CCOc1cc(S(=O)(=O)NC2CCCC2)ccc1Cl	-7%

5 entries from above, ordered by number of heavy atoms, low to high.
Compound	AmpC inh no det
CCOc1cc(S(=O)(=O)NC2CCCC2)ccc1Cl	-7%
CCOc1ccc(Nc2c3c(nc4ncnn24)CC(C)CC3)cc1 (stereo unspecified)	60%
Cc1cccc2cc(CN(Cc3ccccc3)C(=O)N(C)C)c(=O)[nH]c12	64%
CCOc1ccc(-n2c(C)nc3c(cnn3-c3ccc(Cl)cc3)c2=O)cc1	29%
O=C(NC1CCCC1)C(c1ccco1)N(Cc1ccccc1)C(=O)c1csnn1 (stereo unspecified)	18%

Given with each value named: two of the compounds above
CCOc1ncccc1C(=O)OCc1cn2cc(Cl)ccc2n1
  AmpC inh no det: 40%

Cc1cccc2cc(CN(Cc3ccccc3)C(=O)N(C)C)c(=O)[nH]c12
  AmpC inh no det: 64%

Next entries follow:
Compound	AmpC inh no det
COc1ccc(NC(=O)Nc2ccc3nccnc3c2)cc1	-24%
COc1ccc(NC(=O)CCCC2=NS(=O)(=O)c3ccccc3N2)cc1	4µM*[single pt active]
O=C(c1ccco1)N(Cc1cccs1)C1CCS(=O)(=O)C1 (stereo unspecified)	0%
O=C(OCN1C(=O)c2ccccc2C1=O)C1CCCCC1	3%
COCCCn1c(N)c(C(=O)OC(C)COC)c2nc3ccccc3nc21 (stereo unspecified)	51%
CCOC(=O)C1C(c2ccc3c(c2)OCO3)NC(=O)NC1(O)C(F)(F)F (stereo unspecified)	1%
O=C(CN1CCOCC1)OCCCC1CCCCC1	28%
CC1Cc2nc(SCC(=O)NCc3ccco3)n(Cc3ccccc3)c(=O)c2S1 (stereo unspecified)	-1%
Cn1c(SCC(=O)Nc2nccs2)nnc1-c1ccncc1	1%
COC(=O)c1c(NC(=O)CN2CCOCC2)sc2c1CCC(C)C2 (stereo unspecified)	122%
COc1ccc2[nH]cc(C3N4CC5(C)CN3CC(C)(C4)C5=O)c2c1 (stereo unspecified)	14%
CCN1CCN(c2cc(C)c3cc(NC(=O)c4ccc(Br)o4)ccc3n2)CC1	63%
COc1cccc(-n2nnnc2SCC(=O)Nc2cccc(NC(C)=O)c2)c1	31%
O=C(NCCOc1ccccc1)c1ncn[nH]1	-9%
Cc1ccnc(NC(=O)CCC(=O)N(CC(=O)NC2CCCCC2)c2ccc3c(c2)OCO3)c1	70%
CCOC(=O)N1CCC(NC(=O)C2CCCN(S(C)(=O)=O)C2)CC1 (stereo unspecified)	-6%
COc1ccccc1C1C=C(c2ccccc2)Nc2nnnn21 (stereo unspecified)	3%
O=C1c2ccccc2C(=O)N1CCc1ccccn1	-2%
CCOC(=O)c1cc(C#N)c(SCC(=O)c2cc(C#N)c(SC)nc2C)[nH]c1=O	?
CCn1c(N)c(C(=O)NCc2cccnc2)sc1=S	-4%
COc1cc(NC(=O)c2cccc3c2C(=O)N(Cc2cccnc2)C3)cc(OC)c1OC	32%
COc1ccc(C(O)c2nccn2Cc2ccccc2)cc1 (stereo unspecified)	11%
CC(C)CC12CN3CCN(CC(C3)C1O)C2 (stereo unspecified)	-4%
CCCC(=O)n1nc(-c2ccco2)nc1SCc1ccccc1	10µM*
CCOC(=O)c1ccc(NC(=O)c2ccc3c(c2)OCO3)cc1	0%
O=C(CSc1nnc(-c2ccco2)n1-c1ccccc1)NCc1ccc2c(c1)OCO2	10%
CCOC(=O)C1CCCN(C(=O)CCc2ccccc2)C1 (stereo unspecified)	17%
O=C1CNCc2[nH]c3ccccc3c2N1c1ccccc1	5%
COc1ccc(CCN2CCCn3c2nc2c3c(=O)n(Cc3ccccc3F)c(=O)n2C)cc1OC	106%
O=C(O)CSCc1c(F)cccc1Cl	6%
O=C(c1ccc2c(c1)c(=O)oc1ccccc12)N1CCCCC1	16%
COc1ccc(NC(=O)CC(Cc2ccccc2)C(=O)O)cc1 (stereo unspecified)	-4%
CC(C)=CCCC(C)CN1CCC(O)CC1 (stereo unspecified)	-1%
Cc1ccc(C2CC(C(F)F)n3ncc(C(=O)Nc4cnn(Cc5ccccc5C)c4)c3N2)cc1 (stereo unspecified)	82%
CNC(=O)N(C1=NCC(C)S1)c1ccc(F)cc1F (stereo unspecified)	52%
N[C@@H](Cc1c[nH]c2ccccc12)c1nnc(SCc2ccccc2)o1	73%
COc1ccc(N(CC(=O)Nc2ccc(S(=O)(=O)N3CCCC3)cc2)S(C)(=O)=O)cc1OC	40%
Cc1cc(C)nc(SCC(=O)Nc2ccc(S(=O)(=O)Nc3nccs3)cc2)n1	-5%
O=c1c2c3n(c(=O)nc2[nH]n1-c1ccccc1)CCCCC3	-15%
CC(CC(=O)NC1CCSC1=O)c1ccccc1 (stereo unspecified)	10%
Cc1cc(OCc2ccc(F)cc2)nc(-c2ccccc2O)n1	-2%
Nc1sc2c(c1C(=O)NC1CCS(=O)(=O)C1)CCC2 (stereo unspecified)	66%
COc1cccc(-c2nnc(NC(=O)c3ccc(S(=O)(=O)N(CC(C)C)CC(C)C)cc3)o2)c1	7.9µM*
COc1cccc(N(C(=O)c2ccco2)C(C(=O)NC2CCCC2)c2ccc(N(C)C)cc2)c1 (stereo unspecified)	66%
COc1cccc(NC(=O)CSc2ccc3nnc(-c4ccncc4)n3n2)c1	1%
O=C(CC1C(=O)NCCN1C(=O)Nc1ccccc1)Nc1cccc(C(F)(F)F)c1 (stereo unspecified)	71%
Cc1ccc(NC(=O)CC(O)(C(F)(F)F)C(F)(F)F)c(Br)c1	-16%
COC(=O)[C@@]1(Cc2ccc(OC)cc2)[C@H]2c3cc(C(=O)N(C)C)n(Cc4ccc(C)o4)c3C[C@H]2CN1C(=O)c1ccccc1	144%
COC(=O)CSC1=C(C#N)C(c2ccc(C)cc2)C2=C(CCCC2=O)N1 (stereo unspecified)	10%
COc1cc(C)c(C)cc1S(=O)(=O)N1CCCCC1c1cccnc1 (stereo unspecified)	72%

More entries
Compound	AmpC inh no det
Cc1c(C(=O)c2cccc3ccccc23)c2cccc3c2n1[C@H](CN1CCOCC1)CO3	123%
O=C(Nc1cccc(O)c1)c1ccccc1	-7%
O=C(CN(C(=O)C1COc2ccccc2O1)c1ccccc1)NCC1CCCO1 (stereo unspecified)	32%
COc1cccc(Nc2ncc3nc(CCc4ccccc4)c(=O)n(Cc4cccs4)c3n2)c1	-10%
O=S(=O)(O)[C@@H](CO)c1ccccc1 (tested in a mixture with another compound)	6%[5.75 µM]
O=C(COC(=O)c1cccc(S(=O)(=O)N2CCOCC2)c1)Nc1ccc2c(c1)OCO2	-5%
CCCCn1c(SCC(=O)Nc2cc(C)on2)nnc1-c1cccnc1	-12%
CCCC(c1nnnn1Cc1ccccc1)N1CCN(c2ccccc2OC)CC1 (stereo unspecified)	99%
COC(=O)[C@@]1(Cc2ccccc2)[C@H]2c3cc(C(=O)N(C)C)n(Cc4c(CO)[nH]cc(C)c4=O)c3C[C@H]2CN1C(=O)c1ccccc1	148%
Cc1ccc(F)cc1NC(=O)c1cccc(N(C)C)c1	-3%
Cc1nn(C)c(C)c1Sc1ccc(Br)cc1	63%
O=C(Nc1cccc(F)c1)Nc1ccccn1	-10%
COc1ccc(C(=O)N(Cc2ccc(N(C)C)cc2)C2CCS(=O)(=O)C2)cc1 (stereo unspecified)	38%
CCCn1c(SCC(=O)O)nc2ccccc21	-4%
CCOC(=O)N1CCN(Cc2ccccn2)CC1	3%
O=c1ccccn1Cc1ccccc1F	-3%
CCOc1cc(/C=N/n2cnnc2)cc(Br)c1O	-7%
O=C(Nc1cccnc1N1CCOCC1)c1ccco1	2%
COc1ccc2[nH]cc(CCNc3nc(-c4ccc(N(C)C)cc4)nc4ccccc34)c2c1	?
CC(=NCCN1CCOCC1)c1c(O)n(-c2ccccc2C)c(=O)[nH]c1=O	40%
CC1(C)CC(=O)c2cc(OCC(=O)NCc3cccnc3)ccc2O1	3%
Cn1nc(-c2ccc(Cl)cc2)c2cc(C(=O)NCCN3CCOCC3)sc21	146%
COC(=O)C1=C(C)N=c2s/c(=C3\C(=O)Nc4ccccc43)c(=O)n2C1c1ccccc1 (stereo unspecified)	-1%
COc1cc2c(=O)n(CC3CCCO3)c(=O)n(CC(=O)Nc3ccc(F)cc3F)c2cc1OC (stereo unspecified)	4µM*[single pt active]
Cc1occc1C(=O)NC1CCCc2ccccc21 (stereo unspecified)	-4%
CCN1C(=O)c2cccc3c(S(=O)(=O)Nc4ccccn4)ccc1c23	-9%

High-throughput results as filed in PubChem.
